# CBX7 AlphaScr: CBX7 inhibition, primary AlphaScreen. AlphaScreen His6-CBX7 / biotin-H3K27me3 peptide binding; active compounds read low. AID 1224903. normalised signal (fraction of DMSO) (no concentration beside the values). O95931. 66,000 compounds, 1.1% hits; in the data active = normalised signal below about 0.5;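 note: 100 nL library stock added to about 20 µL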
# Target sequence (O95931 whole entry, looked up): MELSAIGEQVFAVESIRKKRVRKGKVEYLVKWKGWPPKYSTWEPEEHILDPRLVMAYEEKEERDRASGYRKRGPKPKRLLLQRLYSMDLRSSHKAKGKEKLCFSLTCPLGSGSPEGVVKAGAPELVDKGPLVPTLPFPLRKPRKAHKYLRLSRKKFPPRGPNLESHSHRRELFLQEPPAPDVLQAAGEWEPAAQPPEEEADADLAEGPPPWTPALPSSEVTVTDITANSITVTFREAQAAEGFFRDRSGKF
# CBX7 AlphaScr z-score: second read-out of CBX7 AlphaScr, no call of its own (marks repeat the call); z-score; measured here: z-score of CBX7 signal; some inactives read as strong as hits; reference of the scale not given here;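 same signal on another scale; lower means less binding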
# Starred values were filed as active, the others as inactive; & = joins results of further samples. Not all compounds are listed. The share of hits here may be higher or lower than overall.
SMILES,CBX7 AlphaScr,CBX7 AlphaScr z-score
O=C(CSc1nnc(CNC(=O)c2cccs2)o1)NCCc1ccccc1,1.02,0.53
CCOC(=O)Cn1c(=O)n(Cc2ccc(C)cc2)c(=O)c2cccnc21,1.1,1.87
COc1ccc(CCNC(=O)c2cc3c(s2)-c2ccccc2OC3)c(OC)c1,1.25,3.45
Cc1cc(C)cc(OCc2nc(-c3ccccc3Cl)no2)c1,1.53,7.69
CCOc1ccccc1CN1C(=O)c2ccccc2C1C(=O)NC1CCCCCC1 (stereo not drawn),0.873,-0.448
COc1ccc(Oc2nc(-c3ccc(Cl)cc3)nc3ccccc23)cc1,1.12,0.29
Cc1ccc(-n2c3c(cc(C(=O)Nc4ccccc4Cl)c2=O)C(=O)CC(C)(C)C3)cc1,1.08,0.918
CC1(C)CC(=O)c2cc(C(=O)NCCCO)c(=O)n(-c3ccc(Cl)cc3)c2C1,0.982,-0.0762
CCOc1ccccc1CNC(=O)c1cc(=O)[nH]c2ccc(S(=O)(=O)N3CCCCC3C)cc12 (stereo not drawn),1.01,0.293
Fc1ccc(CNc2nc(-c3ccc(Cl)cc3)cc(C(F)(F)F)n2)cc1,1.64,25.6
CC(C)c1ccc(-c2csc(NC(=O)c3ccc(S(=O)(=O)N4CCCCC4)cc3)n2)cc1,1.01,0.178
O=C(Nc1cccc(-c2cn3ccccc3n2)c1)c1ccccc1,1.22,1.84

# Full records, looked up by structure:
# Cc1cc(C)cc(OCc2nc(-c3ccccc3Cl)no2)c1 in the list: CBX7 AlphaScr: 1.53; CBX7 AlphaScr z-score: 7.69
# COc1ccc(CCNC(=O)c2cc3c(s2)-c2ccccc2OC3)c(OC)c1 in the list: CBX7 AlphaScr: 1.25; CBX7 AlphaScr z-score: 3.45

# (further entries)
SMILES,CBX7 AlphaScr,CBX7 AlphaScr z-score
COc1ccc(-c2cc(C(=O)Nc3cccc(C(F)(F)F)c3)no2)cc1,1.31,1.83
Cc1cccc(OCCn2c(C3CC(=O)N(c4ccc(Br)cc4)C3)nc3ccccc32)c1 (stereo not drawn),1.06,0.353
Cc1ccc(CN2CCN(CC(=O)NC3CCCCC3C)C2=O)cc1 (stereo not drawn),0.953,-0.857
COc1cc(-c2nnc(SCC(=O)c3ccc(Cl)cc3Cl)o2)cc(OC)c1OC,0.981,-0.374
CC(C)c1ccc(NC(=O)c2cccc3c2C(=O)N(Cc2ccccn2)C3)cc1,1.1,1.23
Cc1ccc(N(CC(=O)NC2CCCC2)S(=O)(=O)c2c(C)noc2C)cc1,1.03,0.217
O=C(NCc1nnc(SCC(=O)N2CCc3ccccc32)o1)c1ccccc1F,0.967,-0.542
CCC1=Nc2cc(C(=O)NCc3ccccc3)ccc2Sc2ccc(C)cc21,0.859,-6.68
O=C(NC1CCCCC1)c1ccc2c(c1)N(Cc1ccc(F)cc1Cl)C(=O)CS2,1.16,2.41
COCCNC(=O)CCc1c(C)nc2c(-c3ccc(F)cc3)c(C)nn2c1C,1.1,0.621
COc1ccccc1CNC(=O)c1ccc2c(c1)N(Cc1ccccc1)CCS2,0.763,-0.314
O=C1CC(Cc2ccccc2)C(=O)N1c1ccc2ccccc2n1 (stereo not drawn),0.913,-1.03
CN(CCNC(=O)C1(S(=O)(=O)c2ccc(Cl)cc2)CC1)Cc1ccccc1,1.11,2.97
O=C(CN1C(=O)COc2ccc(S(=O)(=O)N3CCCC3)cc21)N1CCC(Cc2ccccc2)CC1,0.95,-1.42
CCOCc1cnc(C)nc1NCC(=O)c1c(C)[nH]c2ccc(OC)cc12,1.11,2.87
CC(=O)NC(CCS(C)(=O)=O)C(=O)Nc1ccc(F)cc1 (stereo not drawn),1.06,2.63
COc1ccc(Br)cc1-c1noc(C(F)(F)F)n1,1.16,1.79
Cc1ccc(Nc2c(-c3ccc(O)cc3)nc3ncccn23)c(C)c1,1.03,0.505
COC(CNC(=O)c1ccc2c(c1)N(Cc1ccc(Cl)cc1)C(=O)c1ccccc1S2=O)OC (stereo not drawn),1.01,0.114
CCCC1=Nc2cc(C(=O)NC3CCCC3)ccc2Sc2ccc(C)cc21,0.864,-1.95
COC(=O)c1cc2c(cc1NC(=O)Cn1nc(Cc3cccnc3)c3ccccc3c1=O)OCO2,1.01,0.00861
Cc1cccc(NC(=O)Nc2cccc3ccccc23)n1,1.1,1.17
COc1cccc(-c2nc(SCC(=O)NC3CCCC3)c(-c3ccc(C)cc3)[nH]2)c1,0.915,-1.45
CN1CCN(CCCNC(=O)c2ccc3c(c2)N(Cc2ccc(F)cc2)CCS3)CC1,0.92,-3.84

# In another format: two of the compounds above.
# Below each compound: CBX7 AlphaScr	CBX7 AlphaScr z-score
> COc1ccc(Br)cc1-c1noc(C(F)(F)F)n1
 : 1.16	1.79
> Cc1ccc(Nc2c(-c3ccc(O)cc3)nc3ncccn23)c(C)c1
 : 1.03	0.505

# Following part:
SMILES,CBX7 AlphaScr,CBX7 AlphaScr z-score
CC1(C)CC(=O)C2=C(C1)Nc1cc(C(=O)c3ccccc3)ccc1NC2c1ccccc1 (stereo not drawn),0.829,-2.05
O=C(O)CNC(c1ccccc1)c1cc(Br)ccc1NC(=O)c1ccccc1 (stereo not drawn),0.948,-1.3
COc1ccc(-c2cn(-c3ccccc3)c(SCC(=O)Nc3ccc(F)cc3)n2)cc1OC,0.656,-3.47
CC1CCN(c2nc(-c3ccc(Br)cc3)cs2)CC1,1.18,4.98
COCCNC(=O)C1CCN(Cc2nc(-c3cccc(Br)c3)oc2C)CC1,1.04,0.824
COc1cccc(NC(=O)NCCCN2CCN(c3cccc(Cl)c3)CC2)c1,1.44,3.45
CCOC(=O)CC1NCCc2c1[nH]c1ccc(OC)cc21 (stereo not drawn),0.975,-0.364
CNC(=O)COc1ccc(Nc2nnc(-c3ccccc3)c3ccccc23)cc1,0.877,-2.31
Cc1cc2cc(CCNC(=O)c3ccccc3Br)c(=O)[nH]c2cc1C,1.01,0.0678
COc1ccc(-c2nc3ccccn3c2Nc2ccc3c(c2)OCCO3)cc1,0.707,-11
CCC(=O)Nc1nc(C)c(-c2csc(Nc3cccc(C(=O)O)c3)n2)s1,0.974&0.93,-0.583&-1.2
COc1ccc(-c2c(C)nn3c(N4CCc5ccccc5C4)cc(C)nc23)cc1OC,0.967,-0.828
CCCCN(CC)CCCNC(=O)CC1Oc2ccccc2NC1=O (stereo not drawn),1.19,1.09
CC1CC(C)CN(CCCNC(=O)C2CC(=O)N(C3CCCC3)C2)C1 (stereo not drawn),1.03,0.988
Cc1c(C(=O)NCCC(C)C)oc2ccc(S(=O)(=O)N3CCC4(CC3)OCCO4)cc12,1.25,2.5
Cc1ccc(NC(=O)CN(C)S(=O)(=O)c2ccc3c(c2)n(C)c(=O)c(=O)n3C)cc1,1.03,1.35
O=C(Nc1ccccc1)c1cnn(-c2ccccc2)c1C1CCNCC1,0.996,-0.111
O=[N+]([O-])c1ccc(NCCOc2nonc2-c2ccccc2)cc1,0.96,-1.11
CCC1Oc2ccccc2N(CC(=O)NC2CCCC(C)C2C)C1=O (stereo not drawn),0.857,-1.56
COc1ccc(-c2cc3nc(C)c(CCC(=O)Nc4ccc(NC(C)=O)cc4)c(C)n3n2)c(OC)c1,1.22,2.39
CCOC(=O)c1ccccc1NC(=O)c1cnc(Nc2ccc(C)c(Cl)c2)c2ccccc12,1.53,22.1
CCN(CC)S(=O)(=O)c1ccc2c(c1)N(CC(=O)N1CCC(Cc3ccccc3)CC1)C(=O)CO2,0.988,-0.559
CC(C)c1ccccc1NC(=O)COc1ccc(Cl)cc1,1.1,4.17
COc1ccccc1C(=O)N(Cc1cccs1)C1CCS(=O)(=O)C1 (stereo not drawn),1.03,0.434
O=C1C(Oc2ccccc2)C(c2ccc3c(c2)OCO3)N1CCc1ccc(F)cc1 (stereo not drawn),0.986,-0.0501
O=C1c2ccc(Oc3cccc(NC(=O)C(F)(F)F)c3)cc2C(=O)N1c1ccccc1,1.06,1.78
COc1ccc2c(c1)c(=O)c(S(=O)(=O)c1ccc(F)cc1)cn2CC(=O)Nc1ccc(C)cc1,0.865,-1.94
Cc1cccc2c1-c1sc(C(=O)N3CCCc4ccccc43)cc1CO2,0.917,-2.84
CCOc1ccc(NC(=O)c2n[nH]c(=O)c3ccccc23)cc1,1.02,0.679
Cn1c(Cl)cnc1-c1cc(=O)c2cc(Cl)ccc2o1,0.757,-2.62
CCOC(=O)c1c(C)n(-c2ccc(C)cc2)c2ccc(OCC(O)CN3CCN(CCO)CC3)cc12 (stereo not drawn),0.897,-2.23
CCOC(=O)c1ccc(N2C(=O)CC(NCCc3ccccc3F)C2=O)cc1 (stereo not drawn),1,0.0707
O=C(NC1CCN(Cc2ccccc2)CC1)C1(S(=O)(=O)c2ccc(Cl)cc2)CC1,0.985,-0.398
Cc1ccn2c(NC(=O)C(C)(C)Oc3ccc(Cl)cc3)c(-c3ccccc3)nc2c1,1.02,0.158
COc1cccc(-c2nn(C)c3sc(C(=O)NC4CCCc5ccccc54)cc23)c1 (stereo not drawn),0.895,-2.94
Cn1c2ccccc2c2c(C(=O)NCCCN3CCOCC3)cn(C3CCCC3)c(=O)c21,0.871,-0.129
COc1ccc(Nc2nnc(-c3ccc(C)c(S(=O)(=O)NC(C)(C)C)c3)c3ccccc23)cc1,0.83,-3.2
O=C(Cn1cnc2scc(-c3ccccc3)c2c1=O)Nc1ccccc1C(F)(F)F,0.866,-2.32
CCOC(=O)c1cnc2c(C)cc(C)cc2c1Nc1ccc(C(=O)O)cc1,1.12,1.75
CCOc1ccccc1NC(=O)CSc1nnc(CNC(=O)c2ccccc2F)o1,1.02,0.457
O=C(Cn1nc(-c2ccc(Cl)cc2)c2ccccc2c1=O)N1CCC(Cc2ccccc2)CC1,0.95,-1.51
CCOC(=O)c1cc(-c2ccccc2)n(CCC(=O)Nc2ccc(OC)cc2)c1C,0.957,-0.776
Cc1ccc(S(=O)(=O)C2(C(=O)Nc3ccccc3F)CC2)cc1,1.07,1.46
CCOC(=O)c1ccc(NC(=O)c2cc3sccc3n2Cc2ccc(F)cc2)cc1,0.971,-0.715
COc1cc(C)c(C)cc1S(=O)(=O)NCCc1c(C)[nH]c2ccc(F)cc12,0.923,-0.738
CCn1c(C(=O)N2CCC(C(=O)NC3CCCC3)CC2)cc2sccc21,1.02,0.106
CCOC(=O)C1CCN(C(=O)CS(=O)(=O)Cc2nc(-c3ccccc3Cl)oc2C)CC1,1.03,0.772
Cc1ccc(N2C(=O)C3C(C2=O)C2C=CC3C23CC3)c(C)c1 (stereo not drawn),0.881,-1.89
CCN(Cc1ccccc1)S(=O)(=O)c1ccc2c(c1)CCN2C(=O)CCC(=O)O,0.998,-0.0743
COc1ccc(N2Cc3cccc(C(=O)Nc4cccc(OC)c4)c3C2=O)cc1,0.968,-0.79
Cc1cc(C)nc(Nc2ccccc2Br)n1,1.13,2.19
CC(C)CCNC(=O)CN1C(=O)CSc2ccc(S(=O)(=O)N3CCC(C)CC3)cc21,0.754,-2.92
O=C1CCc2cc(S(=O)(=O)N3CCC(C(=O)NC4CCCC4)CC3)ccc2N1,0.958,-0.715
COC(=O)CNC(c1ccccc1)c1cc(Br)ccc1NC(=O)CCN1CCOCC1 (stereo not drawn),1,0.00313
O=C(Nc1ccc2oc(-c3cccc(Cl)c3)nc2c1)c1ccc(Cl)cc1Cl,0.911,-1.4
CC1CCN(C(=O)c2cn(C3CCCC3)c(=O)c3c2c2ccccc2n3C)CC1,0.855,-0.144
CCCN(CCC)S(=O)(=O)c1ccc2c(c1)CCN2C(C)=O,0.996,-0.133
CCc1ccc2oc(-c3cccc(NC(=O)c4cncc(Br)c4)c3)nc2c1,0.91,-1.07
CN(C)c1ccc(NC(=O)Cn2c(SCc3ccccc3F)nc3ccncc32)cc1,0.818,-8.62
COc1cccc(CNCc2cccnc2)c1OCc1ccccc1F,0.823,-1.93

# Among those listed so far, these have a CF3 group:
SMILES,CBX7 AlphaScr,CBX7 AlphaScr z-score
Fc1ccc(CNc2nc(-c3ccc(Cl)cc3)cc(C(F)(F)F)n2)cc1,1.64,25.6
COc1ccc(-c2cc(C(=O)Nc3cccc(C(F)(F)F)c3)no2)cc1,1.31,1.83
COc1ccc(Br)cc1-c1noc(C(F)(F)F)n1,1.16,1.79
O=C1c2ccc(Oc3cccc(NC(=O)C(F)(F)F)c3)cc2C(=O)N1c1ccccc1,1.06,1.78
O=C(Cn1cnc2scc(-c3ccccc3)c2c1=O)Nc1ccccc1C(F)(F)F,0.866,-2.32

# Next entries.
SMILES,CBX7 AlphaScr,CBX7 AlphaScr z-score
CN(c1ncnc2ccccc12)C1CCCCC1,0.88,-1.88
CCCOc1cccc(C(=O)N(Cc2ccc(Cl)cc2)C2CCS(=O)(=O)C2)c1 (stereo not drawn),0.849,-0.15
COc1ccc(CCNC(=O)C2CCN(S(=O)(=O)c3ccc(OC)c(OC)c3)CC2)cc1OC,1.05,1.49
O=c1nc(/C=C/c2ccc(OCc3ccccc3F)cc2)cc(C(F)(F)F)[nH]1,0.89,-2.96
O=C(NC1CCCCC1)C1c2cccn2CC(=O)N1CCCc1ccccc1 (stereo not drawn),0.873,-2.54
CCc1ccc2oc(-c3cccc(NC(=O)c4cc5ccccc5o4)c3)nc2c1,1.04,1.1
Cc1ccc(-n2cc(-c3ccc4c(c3)OCO4)nc2SCC(=O)Nc2cccc(Cl)c2)cc1,0.935,-2.95
c1cncc(-c2nnc3ccc4ccccc4n23)c1,0.361*,-8.1*
O=C(CC(C(=O)N1CCc2ccccc21)n1ccnc1)NCCN1CCCCCC1 (stereo not drawn),0.336*,-16.6*
CC(=O)N1CCc2cc(S(=O)(=O)NCCc3ccccc3)ccc21,1.03,0.976
O=C(CN1C(=O)COc2ccc(Cl)cc21)NCc1ccccc1Cl,1.46,0.94
Cc1c(C(=O)Nc2ccc(F)cc2Cl)sc2ncn(CC(=O)N3CCCCC3C)c(=O)c12 (stereo not drawn),1.01,0.299

# High-throughput results (PubChem)
